Compound activity deposited in PubChem BioAssay by National Center for Advancing Translational Sciences (NCATS).
GLA inh pH 4.5 – alpha-galactosidase A (human) inhibition, pH 4.5. purified enzyme, 4-MU-alpha-Gal fluorescence, pH 4.5. activity change, negative = inhibition, % at 105 µM. 230,000 tested, under 10 active. AID 1467; inconclusive = small, poorly fitted or top-dose-only inhibition, or a rising curve; inactive = flat fitted curve, though single readings scatter; no compound was filed as active;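 note: 0% = full activity with enzyme and -100% = basal without enzyme; dose as in the result columns while the protocol names 77 µM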
Target sequence (P06280 whole entry, looked up): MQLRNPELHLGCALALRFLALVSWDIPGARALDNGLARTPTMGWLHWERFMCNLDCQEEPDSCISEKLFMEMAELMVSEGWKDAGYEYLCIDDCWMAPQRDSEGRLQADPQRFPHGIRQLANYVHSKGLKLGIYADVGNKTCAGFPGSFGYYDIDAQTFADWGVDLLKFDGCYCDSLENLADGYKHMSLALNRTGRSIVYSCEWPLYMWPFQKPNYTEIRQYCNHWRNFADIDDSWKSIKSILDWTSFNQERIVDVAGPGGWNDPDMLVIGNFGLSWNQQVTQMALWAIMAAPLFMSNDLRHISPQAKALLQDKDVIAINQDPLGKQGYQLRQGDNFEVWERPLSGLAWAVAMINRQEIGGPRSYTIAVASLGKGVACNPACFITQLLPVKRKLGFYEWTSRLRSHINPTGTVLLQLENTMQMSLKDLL
miR-21 reporter – miR-21 reporter, rising signal. HeLa miR-21 FLuc reporter, luciferase, 48 h. Potency, µM (top dose mostly 38.3 µM), inactives show at the highest dose reporter change, positive = more light. 340,000 tested, under 10 active; active = well fitted rising curve with a large enough effect; inconclusive = small, poorly fitted or top-dose-only effect; inactive = no such curve, though single readings can be large or run the other way;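 note: % of control where 0% means no effect; miR-21 action dims this reporter so a rising signal means less miR-21 action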
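HeLa cells endogenously expressing miR-21, stably carrying CMV-driven firefly luciferase with a downstream miR-21 binding site, 2000 cells/well. Titrations up to approximately 40 uM, 48 hours; luciferase luminescence read.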
Rango complex inh – inhibitors of Rango-importin beta complex formation; Potency, µM (top dose mostly 92.2 µM), for inactives: at the highest dose inhibition of complex formation; Q14974; actives 0.031% (n = 340,000); Rango CFP/YFP FRET sensor + importin beta, 45 min; active = rising FRET ratio curve, often small or poorly fitted; inconclusive = mostly compound fluorescence or quenching in the first reads; inactive = flat curves in all reads;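 note: potency is the fitted concentration of half-maximal effect; 0% = DMSO wells and 100% = buffer wells lacking importin beta; nearly all actives have a fitted effect of over 15% in size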
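FRET biosensor Rango (snurportin 1 IBB between N-terminal EYFP and C-terminal Cerulean), 50 nM in PBS/1 mM DTT/0.02% Tween-20/0.1% BSA, preincubated 5 min RT with compound; 0.125 microM importin beta added, 45 min RT, CFP/YFP FRET ratio read.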
Rango release inh – inhibitors of RanGTP-induced Rango-importin beta complex dissociation; Potency, µM (doses to about 46.1 µM), for the others: at the highest dose activity change, negative = inhibition; Biochemical FRET Rango-importin beta, RanGTP-induced dissociation; actives 0.071% (n = 340,000); AID 540253; active means falling FRET ratio curve, often poorly fitted, with flat reads before Ran was added; inconclusive means other falling curves, or compound fluorescence or quenching; inactive means flat or rising ratio curve;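 note: potency is the fitted concentration of half-maximal effect; % of control where 0% means no effect; nearly all actives have a fitted effect of over 45% in size; -100% = wells without RanGTP and RCC1; the record marks most hits as doubtful in a second field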
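Quantitative HTS using a FRET biosensor: 0.1 uM Rango, 0.25 uM importin beta, 0.6 uM Ran, 2 mM GTP, 0.2 uM RCC1 final, PBS with DTT, Tween-20 and BSA. Post-read taken 45 min after Ran addition.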
Starred values were filed as active, the others as inactive; ? = inconclusive; · = not tested or not shown; [ ] = dose if it differs, or a comment.

No.	molecule	GLA inh pH 4.5	Rango complex inh	miR-21 reporter	Rango release inh
1	Cc1ccc(CNC(=O)C23CN(Cc4ccccc4)CC2C(c2cccc([N+](=O)[O-])c2)=NO3)cc1 (centres undefined)	-11	1.6%	2%	-6%
2	Cc1cccnc1CCNC(=O)CCc1nnc(CCc2ccccc2)o1	1	-2.4%	-7%	-10%
3	CC(C)c1ccc(/C=C/C(=O)N2CCOCC2)cc1	·	1.7%	-61%	-1%
4	O=C1NC(c2ccc(Cl)cc2)Oc2ccccc21 (centres undefined)	·	-1.4%	-2%	-12%
5	Cn1cc(/C=N/NC(=O)c2ccccc2O)c2ccccc21	·	5.9%	-37%	-13%
6	CC(=O)Nc1ccc(S(=O)(=O)NC2=C(N3CCN(C)CC3)C(=O)c3ccccc3C2=O)cc1	·	?	1%	-6%
7	Cc1nc2ccccc2c2nc(NC(=O)C(F)(F)F)nn12	2	-2.0%	-10%	2%
8	COc1ccc(N/N=C(/C)c2cnnc(-c3ccccc3)n2)cc1	-4	-0.8%	-22%	21%
9	Cc1cccc(N(C(=O)Cn2nnc(-c3ccc(C)o3)n2)C(C(=O)NC2CCCC2)c2ccncc2)c1 (centres undefined)	·	-0.8%	1%	-2%
10	C=C(C)CSc1nc2sc3c(c2c(=O)n1-c1ccc(C)cc1)CCN(C)C3	·	-0.1%	13%	-9%
11	COc1cc(OC)c(C2=NOC(C(=O)NCc3cccnc3)C2)cc1Cl (centres undefined)	·	0.1%	11%	1%
12	CCCCc1noc(-c2c(-c3ccccc3Cl)noc2C)n1	-1[21.1 µM]	-4.7%	-3%	-22%
13	Cc1cccc(OCC(=O)N(Cc2ccc(F)cc2)C2CCS(=O)(=O)C2)c1C (centres undefined)	·	-0.3%	1%	15%
14	NC(=O)C1CCN(C(=O)N2c3ccccc3Sc3ccccc32)CC1	-6	-1.5%	3%	6%
15	CCCC(C)c1nnc(NC(=O)C2CC(=O)N(c3ccc(OCC)cc3)C2)s1 (centres undefined)	·	1.6%	0%	-8%
16	O=C(CCC1CCCCC1)NC1CCCCC1	·	-2.9%	·	2%
17	Cc1cc(OCC(=O)N2CCN(c3ccccn3)CC2)cc(C)c1Br	·	0.5%	-5%	-9%
18	CCOC(=O)C(Cc1c[nH]c2ccc([N+](=O)[O-])cc12)(NC(C)=O)C(=O)OCC	·	-2.2%	·	1%
19	CCN1CNC(=S)N(c2cc(C)ccc2C)C1	4	1.2%	2%	1%
20	CCOC(=O)c1c(NC(=O)CSc2nc3c(c(=O)n(C)c(=O)n3C)n2CC)sc(C)c1C	2	0.0%	-3%	2%

No.	molecule	GLA inh pH 4.5	Rango complex inh	miR-21 reporter	Rango release inh
21	O=C(COC(=O)COc1ccc2c(c1)CCC2)Nc1ccccc1C(F)(F)F	·	0.5%	·	-9%
22	COc1ccc(CNC(=O)[C@@H](NC(=O)C2CCN(S(=O)(=O)c3ccc(C)cc3)CC2)C(C)C)cc1OC	·	9.8%	1%	0%
23	COc1ccccc1/C=C/C(=O)NC(=S)Nc1ccc(S(=O)(=O)N(C)c2ccccc2)cc1	0	-0.6%	0%	-16%
24	COc1ccc(S(=O)(=O)N(C)C[C@H]2Oc3ccc(NC(=O)Nc4ccccc4)cc3C(=O)N([C@H](C)CO)C[C@@H]2C)cc1	·	-3.5%	·	24%
25	CN(C)S(=O)(=O)c1cccc(NC(=S)Nc2ccc(Cl)cc2Cl)c1	-2	-2.2%	-2%	8%
26	CCc1ccccc1NC(=O)C1CC(c2ccc(F)cc2)=NO1 (centres undefined)	4	-3.4%	-1%	24%
27	CCC(C)(C)n1nnnc1CN1CCc2ccccc21	-5	-1.0%	-7%	-1%
28	CCn1c(Oc2cccc(Br)c2)nc2c1c(=O)n(C)c(=O)n2C	·	1.9%	-9%	5%
29	CC(=O)c1cccc(NC(=O)c2cc(=O)[nH]c3ccc(S(=O)(=O)N4CCOCC4)cc23)c1	·	-1.1%	·	0%
30	Nc1nc(CN2CCOCC2)cs1	1	-2.2%	-3%	0%
31	NC(=O)C1CCN(CC(=O)Nc2ccccc2Sc2ccc(Cl)cc2)CC1	3	-0.9%	-1%	-12%
32	Cc1cc2nc3c(nc2cc1C)C1(C(=O)O)CCC3(C)C1(C)C (centres undefined)	-3	1.1%	-12%	-6%
33	CCOc1cccc(CNc2nnnn2C)c1	·	4.8%	0%	14%
34	CCc1ccc(C2=NN(S(C)(=O)=O)C(c3cccs3)C2)cc1 (centres undefined)	1	?	-50%	-24%
35	COc1ccc(O)c(/C=N/Nc2nc3ccccc3[nH]2)c1	6	3.8%	-23%	3%
36	CN(c1ccccc1)S(=O)(=O)c1cccc(C(=O)NCCc2ccc(O)c(O)c2)c1	4	-4.2%	7%	-8%
37	CCN(CC)CCOC(=O)c1ccc(NC(=O)COc2cc(=O)n(CC)c3ccccc23)cc1	-11	1.6%	-2%	1%
38	CCCCSCCCNC(=S)Nc1ccccc1C	-4	3.8%	14%	22%
39	COc1ccc(NC(=O)c2nc[nH]c2C(=O)N2CCN(C(=O)OC(C)(C)C)CC2)cc1	-5	0.7%	-5%	-5%
40	NC(=O)NC(=O)COC(=O)c1ccccc1OCc1ccc(F)cc1	-8	1.7%	9%	-6%

No.	molecule	GLA inh pH 4.5	Rango complex inh	miR-21 reporter	Rango release inh
41	O=C(NC1CCCC1)C(c1ccccc1)N(C(=O)c1ccno1)c1cccnc1 (centres undefined)	4	-1.2%	1%	0%
42	COC(=O)C1=C(C)N(Cc2ccccc2)C(=NCC(C)C)N[C@H]1c1cccc(F)c1	·	-6.0%	?	-5%
43	Cn1c(=O)c2c(-c3ccc(C(C)(C)C)cc3)n(CC3CCCO3)cc2n(C)c1=O (centres undefined)	-6	-2.2%	-19%	2%
44	CCOC(=O)c1c(NC(=O)CN2C(=O)NC3(CCCCC3C)C2=O)sc(C)c1C (centres undefined)	-3	-4.9%	-4%	2%
45	COc1cc2c(cc1OC)CN(CC(=O)NC(=O)NCc1ccccc1)CC2	0	-1.2%	1%	1%
46	CCC(C(=O)NCc1ccco1)N(C(=O)CNS(=O)(=O)c1ccc(C)cc1)c1ccccc1OC (centres undefined)	-8	-3.8%	0%	1%
47	Cc1ccccc1OCC(O)Cn1nnc2ccccc21 (centres undefined)	4	-0.7%	-82%	-8%
48	Cc1cccc(OCC2CCCN(Cc3nc(C4CC4)no3)C2)c1 (centres undefined)	-4	-4.0%	1%	-10%
49	O=C(O)c1ccccc1S(=O)(=O)NCC(O)COC1CCCCC1 (centres undefined)	5	0.5%	-1%	0%
50	COc1cccc(C2=CC(c3cccc(OC)c3OC)n3nnnc3N2)c1 (centres undefined)	-5	?	2%	?
51	O=C(NCc1ccccc1Cl)C1(S(=O)(=O)c2ccc(Cl)cc2)CC1	·	3.9%	-7%	0%
52	CCCOc1ccc(C(=O)NCCc2ccccc2)cc1	0	1.6%	1%	-6%
53	CCCCCSc1nncc(=O)[nH]1	2	0.1%	-2%	3%
54	O=C(CN(C(=O)CCC(=O)Nc1ccccn1)C1CCCC1)NCc1ccc(F)cc1	·	2.3%	4%	13%
55	Cc1ccc(CN2C(=O)N/C(=C/c3ccc4c(c3)n(C)c(=O)n4C)C2=O)cc1	-4	·	-3%	·
56	CCc1c(C)c(C#N)c2nc3ccccc3n2c1N(C)C	12	?	-5%	?
57	O=C(NNC(=S)Nc1ccccc1)Nc1ccccc1	6	-0.1%	-39%	-7%
58	Cc1cc(S(=O)(=O)N2CCCOC2CNC(=O)C(=O)NCCCN2CCOCC2)ccc1F (centres undefined)	·	0.1%	-1%	-11%
59	CC(=O)Nc1ccccc1C(=O)C(=O)Nc1cccc(C(=O)NCc2ccccc2)c1	1	2.4%	-19%	15%
60	O=S(=O)(c1cccc2cnccc12)N1CCNCC1	-7	-2.0%	·	-9%

No.	molecule	GLA inh pH 4.5	Rango complex inh	miR-21 reporter	Rango release inh
61	CCCCn1c(Nc2ccc(OC)cc2)nc2ccccc21	·	-2.6%	-6%	-10%
62	O=C(/C=C/c1ccccc1)NNC(=O)c1ccco1	·	-0.1%	-21%	-7%
63	COc1ccc(C)cc1S(=O)(=O)N(C)CC(=O)NCc1ccncc1	·	2.7%	1%	0%
64	COc1ccc(N2C(=O)c3ccc(C(=O)Nc4ccccc4O)cc3C2=O)cc1	·	-0.1%	-1%	2%
65	O=C(N1CCOCC1)C(F)(F)C(F)(F)C(F)(F)C(F)(F)C(=O)N1CCOCC1	3	1.2%	-1%	6%
66	CC(C)c1nnc(NC(=O)C2CCCN2C(=O)Nc2ccc(F)cc2)s1 (centres undefined)	·	-3.4%	0%	0%
67	COC(=O)N(C)CCCC1(C)C(=O)N(C)c2ccc(O)cc21 (centres undefined)	-17	-5.2%	-3%	15%
68	CCCCn1c(N)c(N(CC(C)C)C(=O)CCNC(=O)c2ccc([N+](=O)[O-])cc2)c(=O)[nH]c1=O	·	-1.0%	·	-19%
69	CC(=O)N1CCc2cc(S(=O)(=O)NCCC(=O)Nc3cc(C)cc(C)c3)ccc21	1	2.0%	-5%	-15%
70	CCN(Cc1ccncc1)Cc1cn(C)nc1-c1ccc(Oc2ccccc2)cc1	-9	-3.0%	2%	0%
71	CCOc1ccccc1/C=C/C(=O)N1CCN(C(=O)c2ccco2)CC1	·	-0.6%	·	5%
72	CCCOc1nc(SCCC)nc2c1cnn2-c1ccccc1	-21	-2.7%	-3%	-20%
73	NC(N)=N/N=C/c1cccc(Cl)c1Cl	-2	12%	30%	1%
74	COCCCn1c(SCC(=O)N2CCCCC2C)nnc1-c1ccco1 (centres undefined)	-2	-1.3%	-2%	-10%
75	O=C(CN1C(=O)C(=O)N(Cc2ccco2)C1=O)NC1CCCCC1	5	-5.3%	3%	2%
76	Cc1cccc(C)c1OCc1nnc(SCC(=O)Nc2ccccc2F)o1	5	-1.3%	-10%	-5%
77	O=C(C1CCCCCC1)N1CC[C@@H](N2CCC(O)CC2)[C@H](O)C1	·	?	1%	-15%
78	CCOC(=O)N1CCN(CCC(=O)c2ccc(Br)cc2)CC1	·	0.0%	1%	2%
79	COc1ccc(C(=O)N/N=C/c2ccccn2)cc1OC	1	-0.2%	-1%	21%
80	O=C(Nc1ccc(F)cc1F)NC1CCN(S(=O)(=O)c2ccc(F)cc2)CC1	-9	-0.9%	5%	28%

No.	molecule	GLA inh pH 4.5	Rango complex inh	miR-21 reporter	Rango release inh
81	COc1ccc(Cc2nc(-c3ccncc3)no2)cc1	-1	-1.4%	-32%	-5%
82	Cc1cccc(-n2c(C)cc(/C=C3\C(=N)N4N=C(CC(C)C)SC4=NC3=O)c2C)c1	5	-0.5%	-5%	-14%
83	CCS(=O)(=O)c1ccccc1C(=O)NC1CCCc2ccccc21 (centres undefined)	·	1.8%	13%	-7%
84	O=c1c2ccccc2nnn1CSc1nnnn1-c1ccc(O)cc1	4	-0.1%	-25%	2%
85	C[C@@H]1COC(=O)[C@H](CC(=O)OC(C)(C)C)C/C=C\C[C@@H](CC(=O)N[C@H](CO)Cc2ccccc2)C(=O)N1	·	0.2%	·	9%
86	CCOc1cc(C(=O)NN2CCOCC2)cc(OCC)c1OCC	·	0.2%	0%	2%
87	O=C(O)CC(NC(=O)C12CC3CC(CC(C3)C1)C2)c1ccc(Cl)cc1 (centres undefined)	·	0.2%	-3%	-9%

A second format for some results above.
Values run as follows: GLA inh pH 4.5	Rango complex inh	miR-21 reporter	Rango release inh
4. O=C1NC(c2ccc(Cl)cc2)Oc2ccccc21 (centres undefined)
 : ·	-1.4%	-2%	-12%
82. Cc1cccc(-n2c(C)cc(/C=C3\C(=N)N4N=C(CC(C)C)SC4=NC3=O)c2C)c1
 : 5	-0.5%	-5%	-14%

The list is partial. The share of hits here may be higher or lower than overall.
